RE007 growth inh: less growth of the S. pombe RE007 Vpr strain; S. pombe RE007 Vpr strain, BacTiter-Glo ATP luminescence, 24 h; control for the full effect not named in the record; Potency, µM (doses to about 92.2 µM), without a hit: at the top dose activity change, negative = less growth; 360,000 tested, 0.21% active; active = well fitted falling curve with a large enough effect; inconclusive = small, poorly fitted or top-dose-only effect; inactive = no such curve, though single readings can be large or run the other way;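 note: % is set by controls: 0 for no effect and ±100 for the full control effect; nearly all actives have a fitted effect of over 50% in size; the assay follows cell death caused by Vpr and the record does not say whether a fall means rescue or toxicity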
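Fission yeast RE007 carrying one integrated HIV-1 vpr copy, seeded at OD 0.01 in PMG+AL medium with 23 nL pinned compound. Grown 24 h at 30 degrees; viability read by BacTiter-Glo luminescence after 5 min.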
Cruzain noTriton: cruzain (T. cruzi) inhibition without detergent | purified cruzain, Z-FR-AMC fluorescence, no detergent | Potency, µM, without a hit: max response, negative = inhibition, actives largely listed as inhibitors | 200,000 tested, 2.3% active | AID 1476; active = well fitted curve in the direction sought with a large enough effect; inconclusive = small, poorly fitted or top-dose-only effect, or another doubt; inactive = no such curve, though single readings can be large; an effect the other way counts as inactive or inconclusive;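 note: plate controls were enzyme without inhibitor for no effect and buffer without enzyme for full effect; nearly all actives have a fitted effect of over 40% in size; top concentration of the series not given in the record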
Target sequence (P25779 123-467 limits assumed): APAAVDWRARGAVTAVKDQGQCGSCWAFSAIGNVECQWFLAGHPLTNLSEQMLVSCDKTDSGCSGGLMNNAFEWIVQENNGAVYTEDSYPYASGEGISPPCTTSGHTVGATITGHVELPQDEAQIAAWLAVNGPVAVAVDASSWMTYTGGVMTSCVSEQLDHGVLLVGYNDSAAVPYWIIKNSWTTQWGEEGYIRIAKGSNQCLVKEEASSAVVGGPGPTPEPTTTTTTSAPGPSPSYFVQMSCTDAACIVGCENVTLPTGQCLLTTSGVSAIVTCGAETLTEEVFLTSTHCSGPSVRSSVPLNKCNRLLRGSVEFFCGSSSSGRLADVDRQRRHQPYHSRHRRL
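Detergent-free condition (0.00005% Triton X-100) in acetate buffer pH 5.5 with DTT. 1.5 nM enzyme and compound were pre-mixed 15 min, then 2 uM Z-FR-AMC substrate added; reaction progress from fluorescence change between first and third reads (60 s).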
Cruzain Triton: inhibitors of Trypanosoma cruzi cruzain with detergent; P25779; purified cruzain, Z-FR-AMC fluorescence, 0.01% Triton; Potency, µM, for inactives: max response, negative = inhibition, actives largely listed as inhibitors; 200,000 tested, 0.43% active; AID 1478; active = well fitted curve in the direction sought with a large enough effect; inconclusive = small, poorly fitted or top-dose-only effect, or another doubt; inactive = no such curve, though single readings can be large; an effect the other way counts as inactive or inconclusive;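 note: plate controls were neutral wells for no effect and buffer without enzyme for full effect; nearly all actives have a fitted effect of over 40% in size; top concentration of the series not given in the record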
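Steps: dispense cruzain (1.5 nM final) in acetate buffer pH 5.5 with DTT and 0.01% Triton X-100; pin-transfer compounds; incubate 15 min RT; add Z-FR-AMC (2 uM final); read fluorescence every 30 s, using the 60 s intensity change.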
SARS PLP yeast: inhibitors of SARS-CoV papain-like protease in yeast; S. cerevisiae expressing SARS-CoV PLpro, growth rescue; control for the full effect not named in the record; Potency, µM (titrated, usually from 32.9 µM), without a hit: at the highest dose activity, positive = growth rescue; 330,000 tested, 0.19% active; note: 0% is about no effect; nearly all actives have a fitted effect of over 55% in size; growth read by luminescence after 48 h
StopGo reporter: FMDV 2A StopGo reporter, luciferase signal. human cells with a luciferase reporter of 2A StopGo recoding; control for the full effect not named in the record. Potency, µM (titrated, usually from 57.9 µM), for the others: at the top dose signal change, negative = less light. 410,000 tested, 1.2% active; active = well fitted falling curve with a large enough effect; inconclusive = small, poorly fitted or top-dose-only effect; inactive = no such curve, though single readings can be large or run the other way; tested in HEK293T cells; note: % is set by controls: 0 for no effect and ±100 for the full control effect; nearly all actives have a fitted effect of over 45% in size; luciferase light after 4 h
MARV entry inh: blocks Marburg virus binding to or entry into cells; Marburg virus pseudotyped entry inhibition, cell reporter; control for the full effect not named in the record; about a third of the inactives were read at about 46 µM; Potency, µM (highest dose often 37.8 µM), for the others: at the highest dose activity change, negative = inhibition, actives largely listed as inhibitors; 300,000 tested, 1.8% active; AID 540276; active = well fitted inhibition curve with a large enough effect; inconclusive = small, poorly fitted or top-dose-only effect, or effect the other way; inactive = flat fitted curve, though single readings scatter; tested in HEK293 cells; about a fifth of its hits are not listed in these tables; note: % is set by controls: 0 for no effect and ±100 for the full control effect; luciferase read-out
NS1 inh: influenza NS1 inhibition. S. cerevisiae slowed by influenza A NS1, growth recovery by OD600. 270,000 tested, 0.4% active. Potency, µM (highest dose often 46.1 µM), inactives show at the top dose activity, positive = more growth; note: actives are rising curves; nearly all actives have a fitted effect of over 50% in size
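Growth recovery, yeast-based: influenza A NS1 expressed in S. cerevisiae causes slow growth, and suppressors are detected by OD600. The parent strain without NS1 is used as positive control.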
Lassa entry inh: blocks Lassa virus binding to or entry into cells | Lassa virus pseudotype entry inhibition, cell reporter; control for the full effect not named in the record | 300,000 tested, 1.2% active | Potency, µM (series often up to 37.9 µM), without a hit: at the top dose activity change, negative = inhibition, usual class: inhibitors | AID 540256; active means well fitted inhibition curve with a large enough effect; inconclusive means small, poorly fitted or top-dose-only effect, or effect the other way; inactive means flat fitted curve, though single readings scatter; tested in HEK293 cells; note: % is set by controls: 0 for no effect and ±100 for the full control effect; nearly all actives have a fitted effect of over 50% in size; luciferase read-out
* marks the source's active call; other numbers are inactive results; ? = inconclusive; nt = not tested or not shown; & = joins results of further samples; [ ] = dose if it differs, or a comment. Unless noted, calls come from the whole dose curve; as a rule, active means well fitted rising curve with a large enough effect; inconclusive means small, poorly fitted or top-dose-only effect; inactive means no such curve, though single readings can be large or run the other way. Potency is the fitted concentration of half-maximal effect.

Values run as follows: RE007 growth inh	Cruzain noTriton	Cruzain Triton	SARS PLP yeast	StopGo reporter	MARV entry inh	NS1 inh	Lassa entry inh
> COCC1CCCC1OS(N)(=O)=O (centres undefined)
  -10%	nt	nt	8%	-7%	nt	-3%	nt
> O=C(CSc1cccc[n+]1[O-])Nc1cc(S(=O)(=O)N2CCOCC2)ccc1Cl
  -8%	-4%	1.3%	15%	1%	-3%	-2%	4%
> O=C(NC1CCN(S(=O)(=O)c2ccccc2)CC1)c1cccc(F)c1
  -7%	nt	nt	6%	-8%	-6%	12%	?
> Cc1cs/c(=N\N=C\c2ccccc2)n1Cc1ccco1
  nt	3%	-11%	-4%	-9%	-29%	-13%	14%
> COc1ccc(-c2nnc3n2N(C(C)=O)C(c2ccc(Cl)c(Cl)c2)=C(C(C)=O)S3)cc1
  nt	8%	0.1%	nt	-14%	nt	nt	?
> O=[N+]([O-])c1cc(-c2cnc3ccccc3n2)ccc1Oc1ccc(Br)cc1
  -5%	25µM*	-0.2%	5%	22%	?	?	-1%
> CC(=O)Nc1ccc(S(=O)(=O)NC2CC3CCC2C3)cc1 (centres undefined)
  -2%	nt	nt	3%	7%	nt	10%	nt
> NS(=O)(=O)c1ccc(CCNc2nc3c(-c4cccc(F)c4)nnn3c3ccc(Cl)cc23)cc1
  nt	8%	0.9%	nt	9%	nt	nt	?
> COc1cc2c(cc1OC)CN(CC(=O)Nc1ccc(Cl)cc1Cl)CC2
  6%	nt	nt	-2%	-17%	-1%	-13%	?
> Nc1cc(-c2ccccc2)nn1S(=O)(=O)c1ccc(Br)cc1
  -3%	?	-11%	-11%	-19%	nt	15%	nt
> CC(CC(=O)NNC(=O)c1cccc(Cl)c1)c1ccccc1 (centres undefined)
  3%	nt	nt	1%	16%	-11%[46.1 µM]	3%	-2%
> O=C(NCCc1ccc(Cl)cc1)c1cccn1-c1nnc(N2CCCCC2)s1
  nt	-2%	-2.5%	nt	2%	nt	nt	-19%[46.1 µM]
> COc1ccccc1NS(=O)(=O)c1cc(C(=O)NCCCN2CCCC2=O)ccc1C
  3%	nt	nt	nt	27%	13%	nt	-2%
> Cc1ccccc1NC(=O)CC(O)(C(F)(F)F)C(F)(F)F
  -3%	-3%	2.1%	-8%	-21%	2%	2%	-8%
> Nc1ccccc1C(=O)NCc1ccc(Cl)cc1
  -12%	-1%	-4.0%	?	5%	-1%	-10%	-13%
> O=C(Nc1ccc([N+](=O)[O-])cc1)Nc1ccc2[nH]c(=O)[nH]c2c1
  2%	nt	nt	2%	-12%	1%[46.1 µM]	8%	-1%
> COCCn1ccc(O)c(Cc2ccccc2)c1=O
  -1%	-14%	1.9%	-3%	-6%	22%	6%	8%
> COc1ccc(C(CNC(=O)CCNC(=O)c2ccc(Br)cc2)N2CCOCC2)cc1 (centres undefined)
  2%	nt	nt	-1%	-7%	12%	nt	-5%
> COc1ccc2c(CC(=O)NNC(=O)c3ccc(C)cc3)coc2c1
  -2%	nt	nt	0%	25%	2%[46.1 µM]	nt	12%[46.1 µM]
> Cc1cccc(NC(=O)c2oc3ccc(S(=O)(=O)N(C)C4CCCCC4)cc3c2C)c1C
  nt	5%	0.9%	nt	-5%	nt	nt	-24%[46.1 µM]
> N#Cc1ccc(C(=O)CSc2nnc(-c3ccc(C(F)(F)F)cn3)s2)cc1
  7%	nt	nt	1%	-13%	11%	2%	?
> CCOC(=O)N1CCC(NC(=O)C2CCC(CNS(=O)(=O)c3ccc(OC)cc3)CC2)CC1 (centres undefined)
  13%	-12%	-2.5%	0%	-6%	5%[46.1 µM]	-3%	10%
> Cc1noc2ncnc(Oc3cc(Cl)ccc3Cl)c12
  0%	nt	nt	1%	-18%	-10%[46.1 µM]	3%	1%[46.1 µM]
> Cc1cc(CSCc2ccc(Cl)cc2)no1
  -6%	nt	nt	-1%	7%	nt	-8%	nt
> Cc1c(C(=O)NCC2COc3ccccc3O2)oc2ccc(S(=O)(=O)N(C)C3CCCCC3)cc12 (centres undefined)
  5%	?	0.6%	0%	nt	?	22%	-19%
> O=C(CN1C(=O)CSc2ccc(S(=O)(=O)N3CCCC3)cc21)NCc1ccc(F)cc1Cl
  nt	-7%	0.1%	nt	-8%	nt	nt	1%[46.1 µM]
> O=C(O)c1ccc(CSc2nc3ccc(N4C(=O)C5C6C=CC(C6)C5C4=O)cc3s2)cc1 (centres undefined)
  1%	?	-7.2%	11%	-10%	?	13%	-2%
> O=S(=O)(NC1CCCCCCC1)c1ccccc1F
  2%	nt	nt	-2%	52%[activator]	?	-26%	-14%[46.1 µM]
> CCN(CC(=O)Nc1ccccc1C(F)(F)F)C(=O)CCc1ccccc1
  -8%	nt	nt	-3%	-6%	-7%[46.1 µM]	8%	0%
> COC(=O)c1c(NC(=O)Cc2coc3cc(C)cc(C)c23)sc2c1CCC2
  nt	-23%	-1.7%	nt	-4%	4%[46.1 µM]	nt	1%[46.1 µM]
> CCN(CC)CC(=O)N1c2ccccc2CCc2ccc(NC(=O)c3cc(OC)c(OC)c(OC)c3)cc21
  -5%	nt	nt	0%	12%	?	1%	-7%
> CN(C(=O)C(Cl)Cl)C1CC2C=CC1C2 (centres undefined)
  1%	nt	nt	1%	-7%	?	4%	9%[46.1 µM]
> Fc1ccccc1OCCCCn1cncn1
  -12%	-1%	-5.4%	?	2%	9%	-21%	19%
> COc1cccc2cc(-c3nc(Nc4cccc(C)c4C)sc3C)c(=O)oc12
  nt	-24%	-1.2%	nt	-18%	nt	nt	1%[46.1 µM]
> O=C(CSc1nnc(-c2cccc(Cl)c2)o1)Nc1ccc2c(c1)OCCO2
  -9%	1%	-3.1%	-12%	39%[activator]	?	16%	-6%
> COCCn1c(SCC(=O)NC2CCCC2)nc2c(c1=O)SCC2
  12%	nt	nt	?	-17%	1%	-9%	12%
> COc1ccc(OC)c(NC(=O)CN2C(=O)CC(C)Sc3ccccc32)c1 (centres undefined)
  nt	-1%	-4.1%	nt	-19%	1%[46.1 µM]	nt	nt
> COc1cc(C)ccc1S(=O)(=O)n1nc(C)cc1C
  -4%	nt	nt	0%	7%	4%[14.2 µM]	6%	-3%
> CC(C)(C)c1ccc(S(=O)(=O)N2CCN(C3CCCC3)CC2)cc1
  -12%	nt	nt	-2%	-4%	4%[46.1 µM]	-4%	-10%[46.1 µM]
> CCC(=O)NNC(=O)CCC(=O)Nc1ccccc1
  nt	4%	0.6%	-6%	nt	4%	7%	nt
> O=C(Nc1cccc(O)c1)c1cccc(C(=O)Nc2cccc(O)c2)c1
  4%	nt	nt	2%	-12%	nt	10%	nt
> Cc1ccc(C)c(S(=O)(=O)C(C#N)c2nc3ccccc3nc2N2CCCC2)c1 (centres undefined)
  0%	2%	-10%	7%	14%	0%&0%	23%	-27%
> CCOc1ccc(C(=O)C[n+]2cccc3cc(C)ccc32)cc1
  -19%	nt	nt	-4%	-14%	7.1µM*	6%	?
> C/C(N)=C(/C#N)C(=O)CSc1n[nH]c(-c2ccccc2Br)n1
  11%&-18%	4%	0.4%	8%	24%&58%	?	4µM*	16%[46.1 µM]
> NC(=O)COC(=O)c1ccc(-c2ccccc2)cc1
  -2%	nt	nt	-1%	23%	0%[46.1 µM]	nt	11%[46.1 µM]
> N#CCSc1nnc(COc2cccc3ccccc23)n1-c1cccc(Cl)c1
  4%	?	-2.6%	-3%	?	?	-32%	?
> O=C(NCc1ccc(Cl)c(Cl)c1)c1ccco1
  ?	-6%	-1.1%	-12%	-23%	-3%	-13%	9%
> CN(CCc1ccccc1)C1CCCN(C(=O)Cn2cccn2)C1 (centres undefined)
  -13%	nt	nt	0%	23%	nt	0%	nt
> COc1ccc(CCNC(=O)CN(c2ccccc2)S(=O)(=O)N(C)C)cc1OC
  nt	1%	-1.3%	nt	5%	?	nt	8%[46.1 µM]
> COc1ccc(-c2csc(N(CCCN(C)C)C(=O)c3cccs3)n2)cc1
  -13%	-6%	-12%	-2%	-14%	-10%&-10%	-9%	-28%

2 of these compounds, reformatted:
C/C(N)=C(/C#N)C(=O)CSc1n[nH]c(-c2ccccc2Br)n1
  RE007 growth inh = 11%&-18%	Cruzain noTriton = 4%	Cruzain Triton = 0.4%	SARS PLP yeast = 8%	StopGo reporter = 24%&58%	MARV entry inh = ?	NS1 inh = 4µM*	Lassa entry inh = 16%[46.1 µM]
NC(=O)COC(=O)c1ccc(-c2ccccc2)cc1
  RE007 growth inh = -2%	Cruzain noTriton = nt	Cruzain Triton = nt	SARS PLP yeast = -1%	StopGo reporter = 23%	MARV entry inh = 0%[46.1 µM]	NS1 inh = nt	Lassa entry inh = 11%[46.1 µM]

More compounds follow.
Values run as follows: RE007 growth inh	Cruzain noTriton	Cruzain Triton	SARS PLP yeast	StopGo reporter	MARV entry inh	NS1 inh	Lassa entry inh
> CCN1CCN(C(=O)c2ccccc2N(Cc2ccccc2)S(=O)(=O)c2ccc(OC)cc2)CC1
  -1%	nt	nt	0%	-23%	nt	-1%	nt
> CCn1ncc(CN2CCN(Cc3ccc(OC)c(C)c3C)C(CCO)C2)c1C (centres undefined)
  -2%	nt	nt	0%	-8%	?	2%	-28%[46.1 µM]
> O=C(CN1C(=O)C2C3C=CC(C3)C2C1=O)NCCC1=CCCCC1 (centres undefined)
  -15%	-6%	3.3%	1%	28%	44%	-2%	3%
> CCOC(=O)C1=C(c2ccccc2)OC(N)=C(C#N)C1c1ccc(Cl)s1 (centres undefined)
  -4%	3%	-4.7%	9%	-17%	9%	23%	28%
> Cc1ccc(C)c(S(=O)(=O)n2nc(C)c(S(=O)(=O)N3CCCCCC3)c2C)c1
  nt	-2%	-1.6%	nt	10%	nt	nt	0%[46.1 µM]
> CN(C)c1ccc(C(C(=O)NC2CCCC2)N(C(=O)c2ccco2)C2CC2)cc1 (centres undefined)
  25%	nt	nt	-4%	16%	-8%[46.1 µM]	-12%	nt
> Cc1nn(C(=O)c2cc3sccc3[nH]2)c(C)c1C
  -1%	10%	-5.0%	-5%	nt	13%	-2%	?

High-throughput results (PubChem)
